# Vaccinia mCherry: inhibitors of vaccinia virus infection (mCherry reporter signal); Potency, µM (series often up to 36.5 µM), for inactives: at the top dose activity change, negative = inhibition, most hits filed as inhibitors; Vaccinia virus mCherry reporter infection, fluorescence; about a quarter of the inactives have no number; 310,000 compounds, 0.63% hits; AID 720579; active = well fitted inhibition curve with a large enough effect; inconclusive = small, poorly fitted or top-dose-only effect; inactive = no such curve, though single readings can be large or run the other way; tested in A549 cells; further: nearly all actives have a fitted effect of over 35% in size; inactives centre near -10
# Vaccinia Venus: vaccinia inhibition (Venus reporter); 330,000 compounds, 0.46% hits; Potency, µM (series often up to 36.5 µM), without a hit: at the highest dose activity change, negative = inhibition, hits mostly inhibitors; Vaccinia virus Venus reporter expression, fluorescence; active means well fitted inhibition curve with a large enough effect; inconclusive means small, poorly fitted or top-dose-only effect; inactive means no such curve, though single readings can be large or run the other way; tested in A549 cells; further: nearly all actives have a fitted effect of over 30% in size; inactives centre near -10
# Numbers without * were called inactive; i = inactive; ? = inconclusive; . = no result given; & = joins results of further samples; [ ] = remark or other dose. On the % scale 0 is the no-effect control and ±100 the full control effect; potency means the concentration at half of the fitted maximal effect.
# Order of results – Vaccinia mCherry | Vaccinia Venus
Cc1n[nH]c(=O)nc1N/N=C/c1ccco1
 : ? | 4%
C(=N\Nc1ncnc2ccccc12)/c1ccccc1
 : ? | ?
COc1nc(-c2ccccc2)ccc1-c1noc(-c2ccccc2Br)n1
 : -14% | -6%
CCn1c(CSc2nnc(-c3ccncc3)n2CCOC)nc2cc(C(=O)O)ccc21
 : 42%[activator] | 57%[activator]
O=C(CCNS(=O)(=O)c1ccccc1Cl)N1CCN(c2ccccn2)CC1
 : -5% | -9%
CC(=O)O/N=C(/c1nonc1N)N1CCN(c2ccc([N+](=O)[O-])cc2Cl)CC1
 : i | -11%
COc1ccc2oc(C(=O)OCC(=O)N3CCCC(C)C3)c(C)c2c1 (centres undefined)
 : 0% | -19%
COc1ccc(-c2nc3c(s2)CN(S(C)(=O)=O)CC3)cc1OC
 : -18% | -9%
Cc1nnc(-c2ccccc2)c(=O)n1/N=C/c1c(O)ccc2ccccc12
 : 3.2µM* | ?
Cn1ccnc1C(O)c1cc(C(C)(C)C)c(O)c(C(C)(C)C)c1 (centres undefined)
 : -1% | -11%
O=C(COC(=O)C1CCN(c2ccc(C(F)(F)F)cn2)CC1)c1ccc(Cl)cc1
 : -1% | -5%
CCOc1ccc(CNS(=O)(=O)c2ccc3c(c2)CCCN3C(C)=O)cc1OC
 : -5% | -14%
C=CCn1c(COc2ccccc2)nnc1SCC(=O)O
 : . | -6%
CCCC1Cc2[nH]c(=O)c(C#N)cc2CO1 (centres undefined)
 : -30% | -5%
CCOC(=O)N1CCN(C(=O)c2ccccc2N(Cc2ccccc2)S(=O)(=O)c2ccc(OC)cc2)CC1
 : ? | ?
CC(C)N1CCC(N2CCN(C/C=C/c3ccccc3)CC2CCO)CC1 (centres undefined)
 : -6% | 7%
CCN(CC)c1ccc(NC(=O)c2cc3c(=O)n4cccc(C)c4nc3n2C)c(C)c1
 : -10% | -5%
Cc1nn(C(=O)c2ccoc2C)c(N)c1-c1ccccc1
 : ? | -5%
COc1ccc(C(=O)NCC(c2cccnc2)N2CCN(c3ccccc3)CC2)cc1OC (centres undefined)
 : -14% | -10%
O=C(O)CNC(=O)c1cccc(C(F)(F)F)c1
 : -5% | -18%
Cc1cc(NC(=O)c2cc([N+](=O)[O-])cc([N+](=O)[O-])c2)n(-c2ccccc2)n1
 : -1% | -10%
CC(=O)Nc1ccc([N+](=O)[O-])cn1
 : . | -1%
CC(C)C1C(=O)N(Cc2cn(CC3CCCCC3)nn2)CCS(=O)(=O)N1Cc1ccc(-c2ccc(Cl)cc2)cc1 (centres undefined)
 : 10µM* | ?
O=C(CCCN1C(=O)C(c2ccccc2)Oc2cccnc21)Nc1ccccc1Cl (centres undefined)
 : -21% | -7%
COc1ccc(CCNC(=O)c2c(C)nn(-c3ccccc3)c2Cl)cc1
 : i | -10%
CC1(C(=O)Nc2cccc3cccnc23)CCN1Cc1cccc2c1OCO2 (centres undefined)
 : 7% | 10%
O=C(CCN1CCN(c2ccccc2)CC1)N/N=C/c1ccccc1O
 : ? | ?
O=c1ccn([C@@H]2O[C@H](CNS(=O)(=O)C3CC3)[C@@H](O)[C@H]2O)c(=O)[nH]1
 : i | -11%
Oc1ccc(Cl)cc1C=Nc1ccc(Br)cc1
 : ? | ?
C[C@]12CCC(=O)C[C@@H]1CC[C@@H]1[C@@H]2CC[C@]2(C)[C@@H](C(=O)COC(=O)CCC(=O)O)CC[C@@H]12
 : -17% | -22%
Cn1nnnc1SCCNCc1ccccc1OCc1ccc(Cl)cc1
 : -23% | -21%
COCCCNC(=O)/C=C/c1ccc(Cl)cc1
 : i | 5%
Cc1ccc(C)c(NC(=O)COC(=O)CNC(=O)c2ccccc2Cl)c1
 : -12% | -8%
COc1cc(/C=C2\C(=O)ON=C2c2ccccc2)cc(Br)c1O
 : 4% | 51%[activator]
CCOC(=O)CSc1ncnc2c1sc1nc(N3CCOCC3)c3c(c12)CCCC3
 : . | -9%
CC1(C)Cc2ccccc2-c2nnc(-c3ccc(O)cc3)n21
 : -4% | -9%
COc1ccc(C(=O)NCCS(=O)(=O)NCc2ccccc2)cc1
 : i | -9%
COC(=O)c1ccccc1NC(=O)CSc1n[nH]c(-c2ccncc2)n1
 : i | -12%
COc1ccc(S(=O)(=O)c2cnc3ccccc3n2)cc1
 : -19% | -4%
O=C(O)C[C@H]1c2cc(F)ccc2S(=O)(=O)N1C1CCCC1
 : -19% | -8%&-7%
CCN(c1ccccc1)S(=O)(=O)c1cc(C(=O)Nc2ccc(F)c(F)c2)ccc1F
 : ? | ?
CCN(CC)C(=O)CN1C(=O)C2(OCC(C)(C)CO2)c2ccccc21
 : -16% | -4%
COc1ccc(COc2cc(-c3cccc(OC)c3)nc3ccc(NC(=O)c4ccc(N(C)C)cc4)cc23)cc1
 : ? | -26%
C/C(=N\OCC(=O)Nc1ccc(OC(F)(F)F)cc1)c1ccc2c(c1)OCCO2
 : i | -14%
COc1ccc(Br)c2c1-c1nc(NC(=O)c3ccc(F)cc3)sc1C2
 : 2% | -6%
Cc1cccc(OCC(=O)N2CCN(C(=O)COc3ccc(Cl)cc3)CC2)c1
 : 7% | 6%
O=C(NCC1CCCN1S(=O)(=O)c1ccccc1)c1cccc(Cl)c1 (centres undefined)
 : -2% | -18%
CCCc1nc2nc(C)c(NS(=O)(=O)c3ccc(CC(C)C)cc3)c(=O)n2[nH]1
 : -18%&-5% | -5%&4%
[N-]=[N+]=CC(=O)C(Cc1ccccc1)N1C(=O)c2ccccc2C1=O (centres undefined)
 : . | ?
COc1cc(O)c2c(c1)/C=C/C[C@H](O)[C@H](O)C(=O)CCC[C@H](C)OC2=O
 : 11% | -9%
CCOc1cc(C(=O)Nc2nnc(S(=O)(=O)N3CCOCC3)s2)cc(OCC)c1OCC
 : -13% | -11%
CCOc1cccc(-n2nnnc2-c2ccc(OC)cc2)c1
 : ? | ?
O=C(/C=C/c1cccs1)N1CCN(c2ccccc2)CC1
 : -13% | -5%
COc1cc(NC(=O)C2CCCN(S(=O)(=O)c3ccc4c(c3)oc(=O)n4C)C2)cc(OC)c1 (centres undefined)
 : -26% | -21%
CCCSCCCNC(=O)C1CCN(c2nc3ccccc3nc2C(F)(F)F)CC1
 : -13% | -12%
O=C(Cc1ccc(Cl)c(Cl)c1)NC1CCCCCC1
 : -24% | -16%
CC1CCN(S(=O)(=O)N2CCC(C(=O)NC(C)c3ccccc3)CC2)CC1 (centres undefined)
 : i | -19%
COc1ccc(NC(=O)Nc2c(C)n(C)n(-c3ccccc3)c2=O)cc1OC
 : -9% | -1%
O=C(Nc1ccc(Cl)cc1)OCCn1nnnc1C(c1ccccc1)N1CCOCC1 (centres undefined)
 : 8% | 6%
CN(Cc1nccn1C)C(=O)CC1C(=O)NCCN1Cc1ccc(F)cc1Cl (centres undefined)
 : i | -11%

# The listing continues.
# Order of results – Vaccinia mCherry | Vaccinia Venus
CCc1cnc2c(c1SCc1c(F)cccc1Cl)c(=O)n(C)c(=O)n2C
 : -16% | -12%
COc1ccc(C(=O)c2cnc3cc4c(cc3c2C)OCO4)cc1
 : -14% | -14%
CCOC(=O)Cc1ccc(NC(=O)c2cccc([N+](=O)[O-])c2)cc1
 : -3% | -7%
CCOc1ccc(CCNC(=O)c2ccc3c(c2)nc2n3CCOC2)cc1OCC
 : -8% | -3%
COC(=O)[C@]1(C)N[C@H](CN(C)S(=O)(=O)c2ccc(C(F)(F)F)cc2)[C@@H]2C(=O)N(C)C(=O)[C@@H]21
 : -13% | -2%
CCN(CC)CC#CCC(OC)(c1ccccc1)c1ccccc1
 : i | -7%
CCOC(=O)[C@H]1[C@H]2COc3ccc(OC)cc3[C@H]2N2C(=O)CNC(=O)[C@@]12C
 : i | -8%
COC(=O)C(NC(C)=O)(Nc1ccc(C)cn1)C(F)(F)F (centres undefined)
 : -6% | -20%
COC(=O)c1ccc(N=NN2CCCCC2)cc1
 : -7% | -4%
CC1CN=C(NS(=O)(=O)c2ccccc2)N1 (centres undefined)
 : -11% | -4%
CCn1c(C)cc(/C=C2\NC(=O)N(Cc3ccccc3)C2=O)c1C
 : i | -3%
CSCCC(c1nnnn1Cc1ccccc1)N1CCC(n2c(=O)[nH]c3ccccc32)CC1 (centres undefined)
 : -14% | -19%
O=C(O)CN1C(=O)/C(=C\c2cccc(OCc3ccc(F)cc3)c2)SC1=S
 : i | 5%
N#CCCN(C(=O)CSc1n[nH]c(=O)[nH]c1=O)c1ccccc1
 : -1% | -14%
Cc1ccccc1S(=O)(=O)Nc1ncc(C(F)(F)F)cc1Cl
 : -6% | -12%
CC(C)Nc1nc(NC(C)C)nc(OCCOC(=O)c2ccccc2)n1
 : -7% | 0%
COc1ccc(C)cc1NC(=O)c1cc(S(=O)(=O)NC2CCCCCC2)ccc1F
 : -19% | -18%
CCOc1ccc(N2CC(C(=O)OCC(=O)c3ccc(OC)cc3)CC2=O)cc1 (centres undefined)
 : -11% | 0%
CC1(C(=O)O)CC12c1ccccc1-c1ccccc12 (centres undefined)
 : i | -3%
CCOC(=O)/C=C1\CN(Cc2ccc(OC)cc2)S(=O)(=O)c2ccccc21
 : -6% | -17%

# Some of the entries so far, comma-delimited.
structure,Vaccinia mCherry,Vaccinia Venus
CC1CN=C(NS(=O)(=O)c2ccccc2)N1 (centres undefined),-11%,-4%
CCn1c(C)cc(/C=C2\NC(=O)N(Cc3ccccc3)C2=O)c1C,i,-3%
CSCCC(c1nnnn1Cc1ccccc1)N1CCC(n2c(=O)[nH]c3ccccc32)CC1 (centres undefined),-14%,-19%
O=C(O)CN1C(=O)/C(=C\c2cccc(OCc3ccc(F)cc3)c2)SC1=S,i,5%
N#CCCN(C(=O)CSc1n[nH]c(=O)[nH]c1=O)c1ccccc1,-1%,-14%
Cc1ccccc1S(=O)(=O)Nc1ncc(C(F)(F)F)cc1Cl,-6%,-12%

# Other results follow.
# Order of results – Vaccinia mCherry | Vaccinia Venus
CCCN1CNc2c(c(=O)[nH]c(=S)n2CCC)C1
 : i | -5%
O=C(COC(=O)/C=C/c1cn(-c2ccccc2)nc1-c1cccnc1)Nc1ccc(Cl)cc1Cl
 : -7% | -4%
C=CCn1c(SCC(=O)NCc2ccc3c(c2)OCO3)nnc1-c1cccnc1
 : i | 0%
COc1ccc(/C=C/C(=O)NC(=S)NNC(=O)c2c(-c3ccccc3)noc2C)cc1
 : -19% | -12%
O=C(Nc1ccc(F)cc1)C(c1ccccc1OC(F)(F)F)N1CCN(C(=O)c2ccco2)CC1 (centres undefined)
 : 5% | -11%
CCC1CCC(C(=O)NC(C(=O)NCCN2CCOCC2)C(C)C)CC1 (centres undefined)
 : -10% | 2%
O=C(NC1CCCc2ccccc21)c1cc(F)cc(F)c1 (centres undefined)
 : i | 10%
Nc1ncc(Br)cc1N=Cc1ccccc1
 : -18% | -2%
COC(=O)c1ccc(NC(=S)NCc2ccco2)cc1
 : -6% | -13%
CC1=C(C(N)=O)C(c2cccs2)n2nc(-c3cccc(C)c3)nc2N1 (centres undefined)
 : -8% | -14%
O=C(Nc1ccccc1)c1ccc(-n2nncc2-c2ccccc2)cc1
 : 4% | -14%
COc1ccc(CNC(=O)Cn2nc(C)n3cccc3c2=O)cc1
 : -6% | -6%
CNC(=O)c1cc2n(n1)CCCN(Cc1ccc(F)cc1)C2=O
 : -9% | -12%
CCCN(C)C[C@@H]1OCCCC[C@@H](C)Oc2ccc(NC(=O)c3ccccc3)cc2C(=O)N([C@H](C)CO)C[C@@H]1C
 : -6% | -14%
Cc1ccc(-n2ncc(C(=O)NCCN3CCCC3)c2C2CCN(C(=O)OC(C)(C)C)CC2)cc1C
 : -22% | -8%
CC1(C)Cc2cccc(Oc3cc(NN4CCCCC4)c([N+](=O)[O-])cc3[N+](=O)[O-])c2O1
 : ? | -11%
CC(C)CC(NC(=O)c1ccc(Cl)cc1)C(=O)OCC(=O)c1ccc2c(c1)NC(=O)CO2 (centres undefined)
 : ? | ?
COc1ccc(F)cc1C1=CC(=O)C[C@H](c2ccc3c(c2)OCO3)C1
 : ? | -23%
CCNC(=O)C1CCCN(c2nn3cc(-c4ccc(C)cc4)nc3s2)C1 (centres undefined)
 : -14% | -9%
CC/C(O)=C1\C(=O)CC(C)(C)CC1=Nc1ccccc1C
 : i | -16%
CC(Sc1nc2scc(-c3ccccc3)c2c(=O)[nH]1)C(=O)NC(N)=O (centres undefined)
 : 0% | -9%
Cc1ccc(NC(=O)COc2ccc(-c3nnco3)cc2)cc1S(=O)(=O)N1CCOCC1
 : -8% | 5%
O=C(C[C@H]1C/C=C\C[C@H](Cc2ccc(F)cc2)C(=O)O[C@@H](c2ccccc2)CNC1=O)N[C@H](CO)Cc1ccccc1
 : i | ?
Cc1cc(C)nc(NC(=O)Cc2ccc([N+](=O)[O-])cc2)c1
 : -18% | -1%
Cc1cc(C)c(NC(=O)CCn2c(=O)c3cccn3c3ccccc32)c(C)c1
 : -8% | -15%
O=C(C[C@H]1C[C@H](C(=O)N2CCOCC2)[C@@]2(CCC3CCCC3)c3[nH]c4cc(-c5ccco5)ccc4c3CCN2C1=O)NCc1cccc(C(F)(F)F)c1
 : ? | ?
CCOC(=O)C(C)Sc1ncnc2nc[nH]c12 (centres undefined)
 : -14% | -1%
Cc1nc(Oc2ccccc2)c2ccsc2n1
 : i | -2%
CCCCCCNC(=O)c1ncn[nH]1
 : -10%[7.34 µM] | 2%[7.34 µM]
C(=N/Nc1nc(-c2ccccc2)cc(-c2ccccc2)n1)/c1cccnc1
 : ? | -16%
COC(=O)C1=C(c2ccccc2)C[C@@H]2CC[C@H]1N2C(=O)N1CCCCC1
 : i | -20%
